RE007 growth inh: less growth of the S. pombe RE007 Vpr strain; S. pombe RE007 Vpr strain, BacTiter-Glo ATP luminescence, 24 h; control for the full effect not named in the record; Potency, µM (doses to about 92.2 µM), without a hit: at the highest dose activity change, negative = less growth; 0.21% of 360,000 active; active = well fitted falling curve with a large enough effect; inconclusive = small, poorly fitted or top-dose-only effect; inactive = no such curve, though single readings can be large or run the other way;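 further: nearly all actives have a fitted effect of over 50% in size; the assay follows cell death caused by Vpr and the record does not say whether a fall means rescue or toxicity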
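Fission yeast RE007 carrying one integrated HIV-1 vpr copy, seeded at OD 0.01 in PMG+AL medium with 23 nL pinned compound. Grown 24 h at 30 degrees; viability read by BacTiter-Glo luminescence after 5 min.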
2A StopGo: lowers the luciferase signal of an FMDV 2A StopGo reporter | human cells with a luciferase reporter of 2A StopGo recoding; control for the full effect not named in the record | AID 1159524 | Potency, µM (top dose mostly 57.9 µM), for inactives: at the top dose signal change, negative = less light | 1.2% of 410,000 active; active = well fitted falling curve with a large enough effect; inconclusive = small, poorly fitted or top-dose-only effect; inactive = no such curve, though single readings can be large or run the other way; tested in HEK293T cells; further: nearly all actives have a fitted effect of over 45% in size; luciferase light after 4 h
* = called active by the depositor; ? = inconclusive; [ ] = dose if it differs, or a comment. On the % scale 0 is the no-effect control and ±100 the full control effect; potency means the concentration at half of the fitted maximal effect. Not all compounds are listed, so the mix of outcomes need not match the whole.

Results follow in this order: RE007 growth inh, 2A StopGo
> C[n+]1ccc2[nH]c3ccccc3c2c1
  -16%, -4%
> CCc1ccc(C(O)c2ncc(-c3ccccc3C)[nH]2)cc1 (stereo not drawn)
  -13%, 25%
> COc1ccccc1C(=O)N1CCN(C(=O)[C@H]2O[C@@H](n3ccc(N)nc3=O)[C@H](O)[C@@H]2O)CC1
  16%, -14%
> O=C1N[C@@H](Cc2ccccc2)C(=O)N2[C@@H]1C[C@@]1(Br)c3ccccc3N(S(=O)(=O)c3ccccc3)[C@@H]21
  7%, -1%
> Fc1cccc(Cc2c(-c3ccccc3)nc3c(Cl)cc(C(F)(F)F)cn23)c1
  0%, -6%
> CNc1nc(Oc2cccc(NC(C)=O)c2)c2sccc2n1
  -2%[18.4 µM], -10%
> CCOC(=O)c1ccc(NC(=O)c2c(N)n(C)c(=O)[nH]c2=O)cc1
  5%, 27%
> CCOC(=O)c1ccc(CN2CCCC(C)(C(=O)NCCOC)C2)cc1 (stereo not drawn)
  16%, -18%
> CC1Cc2ccccc2N1C(=O)COC(=O)c1ccco1 (stereo not drawn)
  -6%, -13%
> Cc1ccc(S(=O)(=O)N2C[C@H]3N(C(=O)OC(C)C)N(C(=O)OC(C)C)C[C@H](OC(=O)NC4CC4)[C@@]3(O)C2)cc1
  11%, -28%
> CCc1nc2ccc(C(=O)N3CCN(c4ccccc4)CC3)cn2c1N(CCC(C)C)CCN(C)C
  -5%[18.4 µM], -22%
> CC(C)Cn1cc(-c2cncc3nccn23)cn1
  -1%, -4%
> C=C1CCN([C@@H](Cc2ccccc2)C(=O)NCCC(C)C)S(=O)(=O)c2ccccc21
  18%, -4%
> CC(C)C[C@@H](CNCC(=O)[C@H](Cc1ccccc1)NC(=O)c1[nH]cnc1C(=O)N[C@@H](C)CN)NC(=O)c1nc[nH]c1C(=O)N[C@@H](CC(=O)O)C(=O)O
  -14%, -24%
> NC(=O)C1CCN(CC(=O)Nc2ccc3c(c2)OCO3)CC1
  5%, -24%
> Cc1cccc(-c2cc(NC=O)c3ncc(-c4cccc(C(=O)N(C)C)c4)n3c2)c1
  -8%, ?
> CCOC(=O)c1cc2c(c(CCO)n1)[C@H](CCO)N(S(=O)C(C)(C)C)C2 (stereo partly drawn)
  4%, -14%
> COCCn1c(=S)[nH]c2cc(C(=O)NC3CCCC(C)C3C)ccc2c1=O (stereo not drawn)
  12%, -4%
> COc1ccc(S(=O)(=O)N2CCC(C(=O)N[C@H](C(=O)NCc3ccccc3)C(C)C)CC2)cc1
  1%, -18%
> Cc1ccc(C(c2nc3ccccc3[nH]2)n2c(-c3ccccc3)nc3ccccc32)cc1 (stereo not drawn)
  ?, 25%
> N#CC(C(O)c1ccccc1)N1CCOCC1 (stereo not drawn)
  6%, -10%
> COc1cc(/C=C/CNC[C@H]2O[C@@H](n3ccc(N)nc3=O)[C@H](O)[C@@H]2O)ccc1O
  8%, -14%
> CCC(=O)N1CCC1(C)C(=O)Nc1cccc2c1CCCC2 (stereo not drawn)
  15%[18.4 µM], -12%
> O=C1Nc2ccccc2SC1=Cc1ccccc1
  -7%, 51%[activator]
> CCOC(=O)[C@]12Cc3c(cc(OC)c(OC)c3OC)[C@H]1N(C)C(=O)c1ccccc12
  -13%, -24%
> CCCc1cc(CN(C)C(=O)c2ccc(OC3CCN(C(C)=O)CC3)c(OC)c2)[nH]n1
  -1%, -10%
> O=S1(=O)CC(N2CCN(CCO)CC2)CN1Cc1cn(Cc2cccc(C(F)(F)F)c2)nn1 (stereo not drawn)
  -14%, 0%
> CSCCC(c1nnnn1-c1ccc2c(c1)OCCO2)N1CCC(n2c(=O)[nH]c3ccccc32)CC1 (stereo not drawn)
  12%, -28%
> CCN1C[C@]2(COC)CC[C@H](O)[C@@]34C5C[C@@H]6[C@@H](OC)C[C@@](O)(C5[C@H]6O)[C@](O)([C@@H](OC)C23)[C@@H]14 (stereo partly drawn)
  2%, -20%
> CCC(c1nnnn1-c1ccc2c(c1)OCCO2)N1CCN(CC)CC1 (stereo not drawn)
  3%, -13%
> CC(=O)NC(c1cccc(F)c1)c1nc(-c2ccc(C)c(C)c2)cs1 (stereo not drawn)
  13%, -13%
> O=C(NCCOc1ccccc1)C1Nc2ccc(OC(F)(F)F)cc2C2C=CCC12 (stereo not drawn)
  -11%, ?
> CC1(C(=O)NS(=O)(=O)c2ccc(F)cc2F)CCN1C(=O)C1CCCCC1 (stereo not drawn)
  1%[18.4 µM], 1%
> CCN(CC)Cc1cc(Oc2ccc(O)c(CN(CC)CC)c2)ccc1O
  ?, -12%
> CCOc1cc(Br)c(C(C)NC(=O)c2cccnc2)cc1OCC (stereo not drawn)
  12%, ?
> O=C(OCc1ccc(Br)cc1)c1cc([N+](=O)[O-])ccc1N1CCOCC1
  -6%, 0%
> C#CCOCCOCCOCCNc1nc(N2CCN(C(=O)[C@H]([C@@H](C)CC)n3cc(CCC(=O)O)nn3)CC2)nc(N2CCN(C(=O)[C@H](Cc3ccc(O)cc3)n3cc(CCO)nn3)CC2)n1
  -4%, -14%
> Cc1ccsc1CNC(=O)C1(C)CCCN1CC(C)C (stereo not drawn)
  -2%, -5%
> Cc1ccccc1S(=O)(=O)NC(=O)C1(C)CCN1C(=O)CCc1ccc(Cl)cc1Cl (stereo not drawn)
  0%, -3%
> COc1ccc(OC)c(CN2CCN(Cc3ccc(OC)c(OC)c3OC)CC2)c1
  -13%, -16%
> CCCCCCCCN1C(=O)[C@H](CC(=O)NCc2ccc(OC)c(OC)c2)C[C@@]2(C(=O)OCC)CCC=C12
  -5%, -18%
> c1ccc([C@@H]2CO2)cc1
  4%[18.4 µM], -16%
> CCCCNC(=O)C1(C)CCCCN1C(=O)c1cncc(Br)c1 (stereo not drawn)
  9%, -12%
> COCCN1C(=O)CCC1(C)c1nnnn1-c1ccc2c(c1)OCCO2 (stereo not drawn)
  -24%, -23%
> O=C(NC1CCCCC1)OC1CC2CC1[C@H]1CCCCN1C2=O (stereo partly drawn)
  7%, -24%
> COCCCNC1=C(C#N)C(=O)NC2(CCCC2)S1
  -7%, -14%
> C(=C\c1ccccc1)/CN1CCN(C(CCc2ccccc2)c2nnnn2C2CCCCC2)CC1 (stereo not drawn)
  -22%, 0%
> CC1CC(C)CN(C(C(=O)NC2CCCCC2)c2cc3ccccc3o2)C1 (stereo not drawn)
  -22%, 0%
> O=C(Nc1nccs1)[C@@H]1CC=C[C@@H]2CCN(Cc3ccccc3)C(=O)[C@@H]21
  -3%, -5%
> O=C(Cc1ccc(NC(=O)C2CCN(C(=O)C3CC3)CC2)cc1)Nc1ccc(C(=O)N2CCOCC2)cc1
  1%, 2%
> O=S(=O)(c1cccc2ccccc12)N1CCC2CC1c1cc(-c3ccc4c(c3)OCO4)ccc12 (stereo not drawn)
  4%, -11%
> CN1CCN(C2CN(Cc3cn(Cc4cccc(C(F)(F)F)c4)nn3)S(=O)(=O)C2)CC1 (stereo not drawn)
  3%, -26%
> CN(Cc1ccncc1)C(=O)[C@@H]1CCCN1C(=O)[C@@H]1CCCN1
  -1%, -7%
> CC(=O)Oc1ccc(-c2cc3ccccc3oc2=O)cc1
  -15%, 65%[activator]
> Cc1ccc(S(=O)(=O)CCC(=O)OCCOc2ccc(Br)cc2)cc1
  -15%, -18%
> Cc1ccc(S(=O)(=O)N2C[C@H]3C(=O)C[C@@H](c4ccccc4)N(S(=O)(=O)c4ccc(C)cc4)[C@H]3C[C@H]2c2ccccc2Cl)cc1
  0%, -21%
> COc1ccc(NC(=O)C2Cc3c(-c4ccc5c(c4)OCO5)ccnc3O2)cc1 (stereo not drawn)
  -7%, -30%
> CCc1nc2ccc(C(=O)NCCNC(C)=O)cn2c1N(CCC(C)C)CCN(C)C
  -12%, -8%
> COc1ccc(-c2cnc3c(NC(C)=O)cc(-c4cccc(C(=O)N(C)C)c4)cn23)cc1OC
  -13%, -20%
> O=C(Nc1ccccc1Cl)c1cc(C2CCCCN2C(=O)c2ccccc2)on1 (stereo not drawn)
  3%, -6%

Full records from above:
O=C(NCCOc1ccccc1)C1Nc2ccc(OC(F)(F)F)cc2C2C=CCC12 (stereo not drawn) across the screens: RE007 growth inh: -11%; 2A StopGo: ?
c1ccc([C@@H]2CO2)cc1 across the screens: RE007 growth inh: 4%[18.4 µM]; 2A StopGo: -16%
C#CCOCCOCCOCCNc1nc(N2CCN(C(=O)[C@H]([C@@H](C)CC)n3cc(CCC(=O)O)nn3)CC2)nc(N2CCN(C(=O)[C@H](Cc3ccc(O)cc3)n3cc(CCO)nn3)CC2)n1 across the screens: RE007 growth inh: -4%; 2A StopGo: -14%

Quoted at random: 2 records from the list, in no set order.
Results follow in this order: RE007 growth inh, 2A StopGo
> COCCN1C(=O)CCC1(C)c1nnnn1-c1ccc2c(c1)OCCO2 (stereo not drawn)
  -24%, -23%
> C(=C\c1ccccc1)/CN1CCN(C(CCc2ccccc2)c2nnnn2C2CCCCC2)CC1 (stereo not drawn)
  -22%, 0%

Continued:
Results follow in this order: RE007 growth inh, 2A StopGo
> C[C@@H]1CN([C@H](C)CO)C(=O)CCCn2cc(nn2)CO[C@H]1CN(C)C(=O)Nc1ccccc1C(F)(F)F
  19%, -14%
> O=c1[nH]c2ccccc2n1C1CCN(C(c2ccnc3ccccc23)c2nnnn2-c2ccc3c(c2)OCCO3)CC1 (stereo not drawn)
  -1%, -22%
> CC1(C(=O)Nc2cccc3cccnc23)CCN1C(=O)Cc1ccc(Cl)cc1Cl (stereo not drawn)
  3%[18.4 µM], -20%
> COc1ccc(N(CC(=O)Nc2ccc(S(=O)(=O)N3CCOCC3)cc2)S(C)(=O)=O)cc1OC
  -1%, -13%
> CC(=O)Nc1ccc(-c2ccnc3c2CC(C)(C(=O)NCc2ccncc2)O3)cc1 (stereo not drawn)
  11%, -7%
> COc1cc(Br)cc(C(=O)N2CCc3ccccc32)c1OC
  -11%, 12%
> CCC(=O)N(c1nnc(SC(C)C(=O)Nc2ccc(N3CCOCC3)cc2)s1)C1CC1 (stereo not drawn)
  -4%, -18%
> CCOc1cc(N2CCOCC2)c(OCC)cc1NC(=O)CN1C(=O)NC(C)(c2ccc(OC)cc2)C1=O (stereo not drawn)
  -9%, -10%
> c1cc(-c2ccc3nncn3c2)ccc1CN1CCOCC1
  -12%, -2%
> CSc1ccccc1-c1ccc2nccn2c1
  -7%, 0%
> COc1cccc(NC(=O)COC(=O)c2ccc3c(c2)OCCO3)c1
  7%, -5%
> COC(=O)c1cc(=O)c2c(ccc3oc(=O)ccc32)[nH]1
  1%[18.4 µM], -8%
> CCCCC(c1nc2ccccc2[nH]1)n1c(=O)c(-c2ccccc2)nc2cc(C)c(C)cc21 (stereo not drawn)
  6%, -15%
> O=C1c2ccccc2C(c2nnnn2Cc2ccccc2)N1Cc1cccnc1 (stereo not drawn)
  29%, -13%
> OC[C@@H]1CN(Cc2ccc3c(c2)OCO3)C[C@H](n2cnc3c(NCc4ccc(F)cc4)ncnc32)O1
  1%, -28%
> CC1(C(=O)NCc2ccccc2)CSCC(=O)N1CCCn1ccnc1 (stereo not drawn)
  -6%, -9%
> COc1cc(C=NCc2ccccc2)ccc1O
  -2%, -8%
> COCCNC(=O)C1(C)CCCN(Cc2ccc(OC)cc2)C1 (stereo not drawn)
  -2%, 0%
> COc1ccc(NC(=O)c2ccc3c(c2)CCN3S(C)(=O)=O)cc1
  -2%, -2%
> COC(=O)C1=C(c2cc3ccccc3o2)C[C@@H]2CC[C@H]1N2C(=O)NCCNC(C)=O
  9%, -11%
> COc1ccc(CCNC(=O)c2ccc(NC(=O)CC3SC(N4CCCCC4)=NC3=O)cc2)cc1OC (stereo not drawn)
  4%, -10%
> CCCCCc1c(-c2ccc(F)cc2)ncn1CCc1ccccc1OC
  ?, ?
> C[C@H]1CN([C@@H](C)CO)S(=O)(=O)c2ccc(Br)cc2O[C@H]1CN(C)C(=O)C1CCC1
  -8%, 16%
> CC1(C)Cc2cccc(OC(=O)NC3CCCCC3)c2O1
  -12%, -20%
> CCOC(=O)C1(C)CCCCCN1C(=O)c1csnn1 (stereo not drawn)
  6%[18.4 µM], -1%
> CN(C)S(=O)(=O)n1cc(/C=C(\NC(=O)c2ccccc2F)C(=O)N2CCCCC2)c2ccccc21
  1%, -9%
> CCC(CC)CN1CCC(CN2CCNC(=O)C2=O)CC1
  14%, 3%
> CCc1nc2ccc(C(=O)NCC3CCCCC3)cn2c1N(C)C(=O)c1cccc(OC)c1
  2%[18.4 µM], -4%
> O=C(NCCc1ccccc1)c1ccc(-c2ccc(F)c(F)c2)c2ccoc12
  20%, 6%
> O=C(NCc1ccc(Cl)c(Cl)c1)c1cc(C2CCCCN2C(=O)c2ccccc2)on1 (stereo not drawn)
  -7%, ?
> O=C(Nc1ccc(Cl)cc1)N[C@@H]1CC[C@H](CCNS(=O)(=O)c2ccccc2F)O[C@@H]1CO
  -4%, -19%
> CN1CCN(c2ncnc3c2ncn3[C@H]2CN(Cc3ccc(-c4ccccc4)cc3)C[C@@H](CO)O2)CC1
  -11%, -14%
> COC(=O)[C@]12CCCCC=C1N(Cc1ccccc1)C(=O)[C@H](CC(=O)NCC1CCCCC1)C2
  6%, -14%
> CN(C)c1ncnc2c1nnn2C1OC(CO)C(O)C1O (stereo not drawn)
  -21%, -23%
> Cc1ccsc1C(=O)N1CCCC(C)(C(=O)NS(=O)(=O)C2CC2)C1 (stereo not drawn)
  9%, -8%

Source: PubChem BioAssay (National Center for Advancing Translational Sciences (NCATS))
